# NPYLR7 ag: activates Aedes aegypti NPYLR7 receptor; HEK293T NPYLR7/Galpha15, GCaMP6s calcium fluorescence; 270,000 tested, 0.15% active; activation, % at 10 µM; in the data active means activation above about 40%;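 further: 0% = vehicle and 100% = reference agonist at the receptor; some compounds past the cut are filed as inactive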
# NPYLR7 ag max-min: also measured in NPYLR7 ag; calls as there; activation, %; measured here: Max-Min RFU normalised activation; some inactives read as strong as hits;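 span of the calcium signal over five minutes; 0% = vehicle and 100% = native peptide agonist; compound fluorescence can raise it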
# Numbers without * were called inactive; & = joins results of further samples.
# Start of the listing, in advance:
SMILES,NPYLR7 ag,NPYLR7 ag max-min
CCC(C)N(C(=O)CSc1nc(C)c(C)c(C)c1C#N)C1CCS(=O)(=O)C1 (stereo not given),14.4,12.1
Cc1ccc(CN(C)Cc2c(C(=O)N3CCc4ccccc4C3)nc3ccc(Cl)cn23)o1,4.5,-3.7
COc1ccc(CC2CN(C(=O)c3ccnc(N)c3)CCO2)cc1 (stereo not given),7.5,1.6
CN(CC(=O)NC1CCS(=O)(=O)C1)C(=O)COCc1ccccc1 (stereo not given),1.5,0.8
CC(=O)NC1C(Oc2ccc(C)cc2C)OC(COC(C)=O)C(OC(C)=O)C1OC(C)=O (stereo not given),-6.1,-8.5

# The list itself, from the first entry:
SMILES,NPYLR7 ag,NPYLR7 ag max-min
CCC(C)N(C(=O)CSc1nc(C)c(C)c(C)c1C#N)C1CCS(=O)(=O)C1 (stereo not given),14.4,12.1
Cc1ccc(CN(C)Cc2c(C(=O)N3CCc4ccccc4C3)nc3ccc(Cl)cn23)o1,4.5,-3.7
COc1ccc(CC2CN(C(=O)c3ccnc(N)c3)CCO2)cc1 (stereo not given),7.5,1.6
CN(CC(=O)NC1CCS(=O)(=O)C1)C(=O)COCc1ccccc1 (stereo not given),1.5,0.8
CC(=O)NC1C(Oc2ccc(C)cc2C)OC(COC(C)=O)C(OC(C)=O)C1OC(C)=O (stereo not given),-6.1,-8.5
Cc1nn2c(C)c(C(=O)OC(C)C)nnc2c1-c1ccc(F)cc1,-12.3,-18.9
CCCn1nc(C(=O)NNS(=O)(=O)c2ccc3c(c2)OCCO3)c2ccccc2c1=O,-1.1,22.4
CNc1nnc(SC(C)C(=O)Nc2ccc(N3CCCCC3)cc2)s1 (stereo not given),-4.1,-5.8
Cc1ccc(S(=O)(=O)N=C(Nc2cccc(C(F)(F)F)c2)Nc2nc(C)cc(C)n2)cc1,-5.6,-9.4
O=S(=O)(C=Cc1ccccc1)N1CCN(C(=S)NC2CC3CCC2C3)CC1 (stereo not given),3.7,6.8
Cn1ccc(CNC(c2ccc(Cl)cc2)C2CC2)cc1=O (stereo not given),-0.3&-1.3,-3.4&-2.0
COc1cc(C(=O)N2c3ccccc3CCC2C)cc(OC)c1OC (stereo not given),-6.4,-10.0
O=C(O)c1ccc(Cl)c(NC(=O)c2cccs2)c1,-24.5,-24.7
N#Cc1nc(-c2ccc(S(=O)(=O)N3CCCC3)cc2)oc1NCc1ccc2c(c1)OCO2,0.2,16.1
Clc1ccc(Cc2nsc(NC3CCCCC3)n2)cc1,25.3,21.9
Cc1ccc(C(NC(=O)C2(N)CC2)c2ccccc2)cc1 (stereo not given),-0.4,10.8
N#Cc1cc(Cl)ccc1NCC(CO)Cc1ccccn1 (stereo not given),5.7,2.8
COCC(O)CN(C)c1ccc2ccc(F)cc2n1 (stereo not given),8.0,4.0
COc1cccc(C=NN(C)C)c1OC,4.6,2.6
CCC#CCN1Cc2cc(OC)ccc2N(CC(O)COC)CCC1=O (stereo not given),2.4,16.3
CC1CCN(Cc2nc3c(c(=O)n(C)c(=O)n3C)n2CC(N)=O)CC1,1.2,0.1
CCOc1ccc2cc(C(=O)Nc3ccccc3)c(=N)oc2c1,-3.2,-6.6
CC(C)NC(=O)N(Cc1ccc(F)cc1)Cc1cc(N)ccc1N(C)C,-5.9,-2.8
Nc1c(C=C2C=CC(=O)C=C2)c(=O)nc2sc(-c3ccccc3Cl)nn12,-2.7,-2.9
C=C(C)NN=C(c1ccc([N+](=O)[O-])cc1)C12CN3CN(CN(C3)C1)C2,-1.2,1.3
CN(Cc1ccccc1)Cc1nc2c(c(=O)n(C)c(=O)n2C)n1Cc1cccc2ccccc12,5.5,4.5
Cc1c(S(=O)(=O)CCNC(=O)NC2CCCCC2)c2ccccc2n1Cc1ccc(F)cc1,2.9,4.7
O=C(C1CCCN1C=CC(=O)C(F)(F)F)N1CCCC1 (stereo not given),4.4,2.0
N#CCCn1cc(C(=O)Nc2ccc(C(=O)O)cc2)c(-c2cc3ccccc3o2)n1,-1.1,-1.8
Cc1cc(NC(=O)CN2CCC(NC(=O)c3ccccc3)CC2)n(-c2ccccc2)n1,3.9,7.8
CC1(C(=O)NS(=O)(=O)c2cccc(Cl)c2)CCN1C(=O)c1ccccc1CCc1ccccc1 (stereo not given),3.7,0.9
CCOCCn1c(=NC(=O)c2ccnn2CC)sc2c(C)cc(C)cc21,5.3,6.8
Cc1ccc(Nc2nnc(SC(C(=O)NC(N)=O)C(C)C)s2)cc1Cl (stereo not given),4.1,4.1
COC1CCCN(C(=O)NCc2cccc(NC(=O)CN(C)C)c2)C1 (stereo not given),0.9,3.3
C=CCn1c(N2CCN(Cc3ccc(Cl)c(Cl)c3)CC2)nc2c1c(=O)[nH]c(=O)n2C,-3.6,-3.5
CCC(C(=O)OC)n1cnc2c(nnn2Cc2ccc(C)cc2)c1=O (stereo not given),7.4,9.1
CC1CN(C(=O)CCCCSc2nnc(-c3ccccc3)n2-c2ccccc2)CCN1C(=O)c1cc(C(F)(F)F)cc(C(F)(F)F)c1 (stereo not given),14.0,24.4
CN1CC2(CCN(C(=O)Cc3ccc(-c4ccccc4)cc3)C2)OC1=O (stereo not given),4.7,5.0
C=C(C)CN=C(N)NC1CCN(CC(F)(F)F)C1 (stereo not given),1.9,-3.8
CC(C)N(Cc1nccn1Cc1c(F)cccc1Cl)C(=O)c1ccc(Cl)cc1,9.0,24.3
CCCn1nnnc1CN(C)C1CCC(C)CC1 (stereo not given),3.3,3.6
C=CCOc1c(Cl)cc(CN2CCNC(=O)C2)cc1Cl,4.8,7.1
COc1ccc2c(c1)CCc1c-2noc1-c1ccc(C)c(NC(=O)c2cccc(C(Cl)Cl)c2)c1,1.8,-6.0
CCC(C)c1cc(C(=O)NC2C3CCOC3C23CCC3)on1 (stereo not given),5.5&7.0,1.0&1.6
C=CCn1c(-c2ccc(OC)cc2)nn(CN(CC(C)C)C2CCS(=O)(=O)C2)c1=S (stereo not given),-6.0,-6.3
Cn1cc(/C=C(/C#N)S(=O)(=O)c2cc(Br)ccc2Br)cn1,8.8,5.5
Cc1ccc(N2C(=O)CC(NCc3cccc(Cl)c3)C2=O)cc1 (stereo not given),-12.0,-13.7
c1ccc(CCc2nc(-c3cccnc3)no2)cc1,0.9,2.6
COc1ccc(CCNC(=O)c2csc(CSc3nnc(Cc4ccccc4)n3-c3ccccc3OC)n2)cc1OC,8.3,8.2
Cc1cccc2sc(N(CCCN(C)C)C(=O)CN3C(=O)c4ccccc4C3=O)nc12,-1.7,-1.9
COc1ccc(C(=O)N[C@@H]2CCCCC2NC(=O)C2CCCN(C(=O)c3ccc([N+](=O)[O-])cc3)C2)cc1 (stereo not given in full),25.7,22.0
COC(=O)CCC(=O)N1CCCN(c2nc3ccccc3nc2-c2ccccc2)CC1,7.8,2.3
CCN(C(=O)COc1[nH]c2ccccc2c1C#N)C1CCCCC1,0.6,3.4
Cc1ccc(C(=O)NNC(=O)c2ccc3[nH]c4c(c3c2)CCCC4)c(C)c1,4.5,1.7
CC(=O)NC(C)(COc1nonc1C)COc1nonc1C,-3.6,-7.5
Cc1nn(CC(=O)NCc2cccs2)c(C)c1[N+](=O)[O-],-10.2,-15.1
O=c1ccc(-c2cccs2)nn1CCNS(=O)(=O)CCc1ccccc1,1.9,1.4
Cn1ncc(Br)c1C(=O)Nc1ccc(C2CCCCC2)cc1,-5.8,-9.3
COc1ccc(-c2nc(N(CCC(=O)Nc3ccc(F)cc3)Cc3ccccc3)c3ccccc3n2)cc1,9.0,17.3
Cc1ccc(Cn2cc(S(=O)(=O)c3ccccc3)c(=O)c3cc(F)c(N4CCOCC4)cc32)cc1,11.2,14.4

# Sorted by SMILES length (largest number first): some entries from above
SMILES,NPYLR7 ag,NPYLR7 ag max-min
COc1ccc(C(=O)N[C@@H]2CCCCC2NC(=O)C2CCCN(C(=O)c3ccc([N+](=O)[O-])cc3)C2)cc1 (stereo not given in full),25.7,22.0
COc1ccc(CCNC(=O)c2csc(CSc3nnc(Cc4ccccc4)n3-c3ccccc3OC)n2)cc1OC,8.3,8.2
Cc1ccc(C(=O)NNC(=O)c2ccc3[nH]c4c(c3c2)CCCC4)c(C)c1,4.5,1.7
O=c1ccc(-c2cccs2)nn1CCNS(=O)(=O)CCc1ccccc1,1.9,1.4
Cc1ccc(N2C(=O)CC(NCc3cccc(Cl)c3)C2=O)cc1 (stereo not given),-12.0,-13.7
CC(=O)NC(C)(COc1nonc1C)COc1nonc1C,-3.6,-7.5

# Later entries.
SMILES,NPYLR7 ag,NPYLR7 ag max-min
O=c1cc(NCC2COc3ccccc3O2)nc2ccccn12 (stereo not given),-6.6,-7.7
O=C(NCC(=O)N1CCN(Cc2c(F)cccc2Cl)CC1)NCc1ccc(F)cc1,1.6,5.5
CC(C)OCCCNC(CC(=O)Nc1ccccc1)C(=O)O (stereo not given),11.8,10.4
CCn1cc(C(=O)N2CCNCC2)c2nn(-c3ccccc3)c(=O)c-2c1,-2.9,-3.7
COCC1(C(=O)N2CC(c3ccncc3)C2)CCC1,0.4,-0.1
Cc1cc(=O)n2c(n1)NC(N1CCc3ccccc31)=NC2c1cccs1 (stereo not given),6.9,8.3
Cc1ccc(CNC(=O)C2CCN(c3nccn4nc(-c5ccc(Cl)cc5)cc34)CC2)cc1,6.6,6.5
O=c1c2ccccc2nc(-c2cccc(OCc3ccccc3)c2)n1Cc1ccc(F)cc1,5.1,2.0
CN(Cc1nc(-c2ccc3c(c2)OCO3)no1)Cc1nc2c(s1)CCCC2,17.7,8.4
CC1=CCP(=O)(c2ccccc2)C1 (stereo not given),2.4,1.6
CCS(=O)(=O)c1ccc(NC(=O)c2cc(C3CC3)on2)cc1,1.7,1.0
c1ccc2c(c1)C(=NN=C1CCC3(CC1)OCCO3)c1ccccc1-2,14.2,11.5
Cc1cc(CC(C)NC(=O)CCn2c(C)cc3ccccc32)n[nH]1 (stereo not given),3.8,7.8
CCOc1ccccc1C(=O)Nc1c(C)nc2ccccn2c1=O,1.8,0.8
Cn1c(CSCCC(=O)Nc2ccc3c(c2)OCO3)cc(=O)n(C)c1=O,-5.4,-7.1

# Two of the compounds above, with bars between the fields:
SMILES | NPYLR7 ag | NPYLR7 ag max-min
Cn1ccc(CNC(c2ccc(Cl)cc2)C2CC2)cc1=O (stereo not given) | -0.3&-1.3 | -3.4&-2.0
COc1cc(C(=O)N2c3ccccc3CCC2C)cc(OC)c1OC (stereo not given) | -6.4 | -10.0

# Other entries follow.
SMILES,NPYLR7 ag,NPYLR7 ag max-min
COc1ccc(C(=O)N2CCC(CCC(=O)N3CCC(Cc4ccccc4)CC3)CC2)o1,10.5,0.3
Nc1nn(S(=O)(=O)Cc2ccc(Br)cc2)cc1-c1ccccc1,-1.0,-2.6
CC(CC(=O)OCC(=O)N1CCNC(=O)C1)c1ccncc1 (stereo not given),-4.3,-10.6
CC(C)N(CC(=O)N(Cc1cccn1Cc1ccccc1Cl)C1CCCCC1)C(=O)c1ccco1,-11.4,0.2
c1ccc2c(N3CCN(Cc4cc5n(n4)CCNC5)CC3)nsc2c1,4.1,0.7
CCc1ccc(-c2ccc(NC3CCCCC3C)nn2)cc1S(N)(=O)=O (stereo not given),-16.8,-18.4
O=C(NC(=S)Nc1ccccc1N1CCOCC1)c1ccco1,-4.4,-8.6
CN1C[C@H](NC(=O)c2c[nH]n3ccnc23)C[C@H]1CO,10.2,2.2
COCC(=O)N1CCN(c2cc(Oc3cccc(C)c3)ncn2)CC1C (stereo not given),-0.3,1.4
O=C(CN1CCCC(COCc2ccccc2)C1)NCc1ccccc1Cl (stereo not given),-0.7,-3.2
O=C(NCc1nnnn1C1CCCCC1)Nc1ccccc1F,3.3,1.0
COc1cccc(S(=O)(=O)N2CCC(c3cn(Cc4cccc(F)c4)c4ccccc34)CC2)c1,28.1,16.5
COCCN(CC(=O)N(Cc1cccn1Cc1ccccc1Cl)CC(C)C)C(=O)C1C[C@H]1c1ccccc1 (stereo not given in full),-7.3,0.3
COc1cccc(Cn2cccc2CN(Cc2ccccc2)C(=O)CN(CC(C)C)S(=O)(=O)c2cccc(C(F)(F)F)c2)c1,22.4,14.0
Cc1ccc(NC2CCCN(CCCn3cccn3)C2)cc1C (stereo not given),3.0,1.9
C[C@H](Cn1cnc2c(N)ncnc21)OCP(=O)(O)O,-8.6,-13.5
c1ccc2[nH]c(SCCCN3CCCCC3)nc2c1,-7.9,-13.1
Cc1ccc(C(C(=O)NCc2ccc(-c3noc(C)n3)cc2)N(C)C)cc1 (stereo not given),5.8,7.4
CCC(c1ccccc1)C1CCCN1C(=O)c1ccc2c(c1)NC(=O)CO2 (stereo not given),6.3,3.2
C#CCN(CC(=O)Nc1ccc(C(=O)N(C)C)cc1)C1CCCCC1,-5.4,-6.0
Cc1c2c(n(-c3ccc(Cl)cc3)c1C)N=CN1CCS(=O)(=O)N=C21,-0.5,-4.9
NC(=O)c1c(NC(=O)c2cc(-c3ccco3)on2)sc2c1CCCC2,-1.5,-0.6
COc1ccc(C2c3c(oc4cc(C)c(C)cc4c3=O)C(=O)N2c2nccs2)cc1 (stereo not given),7.4,4.2
Cc1cc(F)ccc1NC(=O)c1ccc2c(c1)CC(C)N2S(C)(=O)=O (stereo not given),-3.1,-3.1
O=C(CNC(=O)C12CC3CC(CC(C3)C1)C2)OCc1nnsc1Cl,-2.9,-0.6
CC1CCc2c(sc3ncnc(OCC(=O)NC45CC6CC(CC(C6)C4)C5)c23)C1 (stereo not given),1.6,6.5
CN(CCC(=O)N1CCCN(C(=O)C(C)(C)C)CC1)c1ccccc1,3.5,-4.1
COCCCN(Cc1nc2scc(-c3ccc(C)cc3)c2c(=O)[nH]1)CC(O)COCc1ccccc1 (stereo not given),-7.8,-5.4
O=C(NCc1cccs1)C1CCN(Cc2coc(-c3ccccc3)n2)CC1,2.7,2.2
C=CCN(CC=C)S(=O)(=O)c1cc(Br)cnc1N,2.0,0.8
CCn1nc(C)c(CNc2nncc(-c3ccc(OC)cc3OC)n2)c1C,0.8,2.2
N#Cc1c(N)nc2sc(C(N)=O)c(N)c2c1-c1ccco1,13.1,10.7
COc1ccccc1C(=O)Nc1ccc(-c2c(C(C)C)nn(-c3ccc(C)cc3)c2OC(C)=O)cc1,17.3,19.3

# These rows are one share of the data. The share of hits here may be higher or lower than overall.
